UUG fidelity = modulators of yeast start codon fidelity, primary screen, whole organism, S. cerevisiae, single point, plate reader; AID 602363, 2012; S. cerevisiae UUG-firefly luciferase reporter, luminescence/redox ratio; 350,000 compounds, 0.13% hits; activity score, % at 18.7 µM;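 active = replicate mean at a twofold rise or more, about +100% in these data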;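 also: firefly luciferase made from a UUG start codon reports start codon fidelity; reporter light over untreated wells divided by growth signal over untreated wells; some hits fall short of that in this replicate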
HIV Env fusion = inhibitors of HIV-1 Env-driven cell-cell fusion, primary screen, HeLa-JRFL effector, CEM21 target cells, luciferase; 360,000 compounds, 1.1% hits; AID 651610, 2012; inhibition, % at 12.3 µM;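 active = mean replicate inhibition score of at least 50 and every replicate individually at or above 50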;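 also: 0% = plate neutral controls and 100% = maraviroc near 300 nM; one replicate is shown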
* = called active by the depositor; [ ] = dose if it differs, or a comment. The list is partial, so the mix of outcomes need not match the whole.

SMILES	UUG fidelity	HIV Env fusion
C[C@@H]1CN([C@H](C)CO)C(=O)c2cccc(N(C)C)c2O[C@H]1CN(C)C(=O)Nc1ccc2c(c1)OCO2	0	-2[16.7 µM]
C[C@@H]1CCCCO[C@@H](CN(C)Cc2ccc(C(=O)O)cc2)[C@@H](C)CN([C@@H](C)CO)C(=O)c2cc(NC(=O)Nc3cccc4ccccc34)ccc2O1	21	2[16.7 µM]
COc1cccc(CNC(=O)C[C@H]2CC[C@H](NC(=O)C3CCC3)[C@@H](CO)O2)c1	6	-9[16.7 µM]
C[C@@H]1CCCCO[C@@H](CN(C)S(=O)(=O)c2cn(C)cn2)[C@H](C)CN([C@@H](C)CO)C(=O)c2cc(NS(=O)(=O)c3cccs3)ccc2O1	35	0[16.7 µM]
C[C@H]1CCCCO[C@H](CN(C)S(=O)(=O)c2ccc(Cl)cc2)[C@@H](C)CN([C@@H](C)CO)C(=O)c2cc(NC(=O)Nc3cccc4ccccc34)ccc2O1	9	-32[16.7 µM]
COCCCNC(=O)[C@]1(Cc2ccccc2N=[N+]=[N-])N=C(c2ccc(OCCCO)cc2)O[C@@H]1c1ccccc1	-7	6[16.7 µM]
CCNC(=O)Nc1ccc2c(c1)C(=O)N(C)[C@@H]1CC[C@H](CC(=O)NCC3CC3)O[C@@H]1CO2	7	5[16.7 µM]
Cc1noc(C)c1NC(=O)Nc1ccc2c(c1)CC(=O)N([C@H](C)CO)C[C@H](C)[C@@H](CN(C)C(=O)Nc1ccccc1)O2	5	-7[16.7 µM]
COc1cccc(S(=O)(=O)N(C)C[C@@H]2Oc3ncccc3C(=O)N([C@H](C)CO)C[C@@H]2C)c1	-5	-5[16.7 µM]
CS(=O)(=O)Nc1ccc2c(c1)[C@@H]1C[C@H](CC(=O)NCC(F)(F)F)O[C@@H](CO)[C@@H]1O2	1	-11[16.7 µM]

Compounds listed so far that contain an aryl methoxy group (2):
SMILES	UUG fidelity	HIV Env fusion
COc1cccc(CNC(=O)C[C@H]2CC[C@H](NC(=O)C3CCC3)[C@@H](CO)O2)c1	6	-9[16.7 µM]
COc1cccc(S(=O)(=O)N(C)C[C@@H]2Oc3ncccc3C(=O)N([C@H](C)CO)C[C@@H]2C)c1	-5	-5[16.7 µM]

Continued:
SMILES	UUG fidelity	HIV Env fusion
C[C@@H]1CN([C@@H](C)CO)C(=O)c2cccc(NC(=O)c3ccc(-c4nccs4)cc3)c2O[C@H]1CN(C)C(=O)Nc1ccc(F)cc1	0	4[16.7 µM]
C[C@H](CO)N1C[C@H](C)[C@H](CN(C)Cc2ccc(Cl)c(Cl)c2)Oc2ccc(N(C)C)cc2CC1=O	-7	-3[16.7 µM]
COc1ccc(S(=O)(=O)N(C)C[C@H]2OCCCC[C@H](C)Oc3ccc(NC(=O)Nc4c(C)noc4C)cc3C(=O)N([C@H](C)CO)C[C@@H]2C)cc1	3	-24[16.7 µM]
O=C(C[C@@H]1CC[C@@H]2[C@H](COC[C@H](O)CN2CCC(F)(F)F)O1)N1CCC(Cc2ccccc2)CC1	7	5[16.7 µM]
C[C@H](CO)N1C[C@H](C)[C@H](CN(C)Cc2ccncc2)Oc2c(NS(C)(=O)=O)cccc2C1=O	-14	-8[16.7 µM]
C[C@@H]1CN([C@H](C)CO)C(=O)Cc2cc(NC(=O)CCC(F)(F)F)ccc2O[C@H]1CN(C)C(=O)NC1CCCCC1	-2	-9[16.7 µM]
C[C@@H]1CN([C@H](C)CO)C(=O)c2cccc(NC(=O)C3CCCCC3)c2O[C@H]1CN(C)S(C)(=O)=O	1	23[16.7 µM]
Cc1ccc(S(=O)(=O)Nc2ccc3c(c2)C(=O)N([C@@H](C)CO)C[C@@H](C)[C@H](CN(C)S(=O)(=O)c2ccc(F)cc2)OCCCC[C@@H](C)O3)cc1	13	5[16.7 µM]
COc1ccc(S(=O)(=O)N(C)C[C@H]2Oc3ccc(NC(=O)Cc4cn(C)c5ccccc45)cc3CC(=O)N([C@H](C)CO)C[C@H]2C)cc1	-1	-30[16.7 µM]
C[C@@H]1CN([C@H](C)CO)S(=O)(=O)c2ccc(-c3cncnc3)cc2O[C@H]1CN(C)C(=O)Cc1ccncc1	-9	-9[16.7 µM]

Brought forward from above: 5 entries; new compounds follow.
SMILES	UUG fidelity	HIV Env fusion
C[C@@H]1CN([C@H](C)CO)C(=O)Cc2cc(NC(=O)CCC(F)(F)F)ccc2O[C@H]1CN(C)C(=O)NC1CCCCC1	-2	-9[16.7 µM]
C[C@@H]1CN([C@H](C)CO)C(=O)c2cccc(NC(=O)C3CCCCC3)c2O[C@H]1CN(C)S(C)(=O)=O	1	23[16.7 µM]
Cc1ccc(S(=O)(=O)Nc2ccc3c(c2)C(=O)N([C@@H](C)CO)C[C@@H](C)[C@H](CN(C)S(=O)(=O)c2ccc(F)cc2)OCCCC[C@@H](C)O3)cc1	13	5[16.7 µM]
COc1ccc(S(=O)(=O)N(C)C[C@H]2Oc3ccc(NC(=O)Cc4cn(C)c5ccccc45)cc3CC(=O)N([C@H](C)CO)C[C@H]2C)cc1	-1	-30[16.7 µM]
C[C@@H]1CN([C@H](C)CO)S(=O)(=O)c2ccc(-c3cncnc3)cc2O[C@H]1CN(C)C(=O)Cc1ccncc1	-9	-9[16.7 µM]
CO[C@H]1CN(C)C(=O)c2ccc(NS(C)(=O)=O)cc2OC[C@@H](C)N(C(=O)NC(C)C)C[C@H]1C	-9	5[16.7 µM]
COc1ccc(NC(=O)N[C@@H]2C=C[C@@H](CC(=O)NCc3ccccn3)O[C@@H]2CO)cc1	-15	15[16.7 µM]
COc1ccc(NC(=O)N(C)C[C@H]2OCCCC[C@H](C)Oc3ccc(NS(=O)(=O)c4ccc(C)cc4)cc3C(=O)N([C@@H](C)CO)C[C@@H]2C)cc1	-1	-37[16.7 µM]
Cc1noc(C)c1NC(=O)Nc1ccc2c(c1)C(=O)N([C@H](C)CO)C[C@H](C)[C@@H](CN(C)Cc1ccc(Cl)c(Cl)c1)OCCCC[C@@H](C)O2	5	6[16.7 µM]
COc1ccc(NC(=O)N[C@H]2CC[C@@H](CCNC(=O)CCN3CCCCC3)O[C@@H]2CO)cc1	6	-9[16.7 µM]
Cc1noc(C)c1S(=O)(=O)N(C)C[C@@H]1OCCCC[C@H](C)Oc2ccc(NS(=O)(=O)c3cccs3)cc2C(=O)N([C@H](C)CO)C[C@@H]1C	10	-39[16.7 µM]
CC(C)NC(=O)N[C@H]1CC[C@@H](CC(=O)NCCN2CCCC2)O[C@H]1CO	-7	1[16.7 µM]
CCC(=O)Nc1ccc2c(c1)OC[C@H](C)NC[C@@H](C)[C@@H](OC)CN(C)C2=O	-12	3[16.7 µM]
COc1ccc(S(=O)(=O)N(C)C[C@H]2Oc3c(NC(=O)Nc4cccc5ccccc45)cccc3C(=O)N([C@H](C)CO)C[C@@H]2C)cc1	-1	3[16.7 µM]
C[C@@H]1CN([C@@H](C)CO)C(=O)c2cc(-c3ccc(F)cc3)cnc2O[C@H]1CN(C)C(=O)c1ccccn1	-10	5[16.7 µM]
COc1ccc(CNC(=O)C[C@@H]2CC[C@H]3[C@@H](COc4ccc(NC(C)=O)cc4C(=O)N3C)O2)cc1	-12	-1[16.7 µM]
Cc1noc(C)c1NC(=O)Nc1cccc2c1O[C@@H](CN(C)Cc1ccccc1)[C@@H](C)CN([C@@H](C)CO)C2=O	-13	-4[16.7 µM]
C[C@H]1CN([C@@H](C)CO)C(=O)c2cc(NC(=O)Nc3cccc4ccccc34)ccc2O[C@H]1CN(C)C	-2	23[16.7 µM]
CNC[C@@H]1Oc2ncc(-c3ccc(C#N)cc3)cc2C(=O)N([C@H](C)CO)C[C@@H]1C	6	9[16.7 µM]
C[C@@H]1CN([C@@H](C)CO)C(=O)c2cc(NC(=O)Cc3ccccc3)ccc2O[C@H]1CN(C)Cc1ccccc1	-11	2[16.7 µM]
COc1ccc(C(=O)Nc2ccc(CN3C(=O)[C@]4(O[C@H](CC(=O)N5Cc6ccccc6C[C@H]5CO)[C@@H]([Si](C)(C)c5ccc(OC)cc5)[C@@H]4C)c4ccccc43)cc2)cc1	0	22[16.7 µM]
C[C@H]1CN([C@@H](C)CO)C(=O)c2cc(NC(=O)C3CC3)ccc2O[C@@H]1CN(C)S(C)(=O)=O	20	0[16.7 µM]
CCCC(=O)Nc1ccc2c(c1)C(=O)N(C)C[C@H](OC)[C@@H](C)CN[C@@H](C)CO2	-7	-8[16.7 µM]
C[C@H](CO)N1C[C@H](C)[C@@H](CN(C)C)Oc2cc(C#CC3CCCCC3)ccc2S1(=O)=O	22	27[16.7 µM]
COc1ccccc1-c1cnc2c(c1)C(=O)N([C@@H](C)CO)C[C@@H](C)[C@@H](CN(C)C(=O)CN(C)C)O2	4	11[16.7 µM]
COc1ccc(NC(=O)Nc2ccc3c(c2)C(=O)N([C@@H](C)CO)C[C@H](C)[C@H](CN(C)C(=O)Nc2ccc(C(F)(F)F)cc2)OCCCC[C@H](C)O3)cc1	-17	40[16.7 µM]
C[C@H](CO)N1C[C@H](C)[C@H](CN(C)C(=O)CCCN(C)C)OCCCC[C@H](C)Oc2ccc(NC(=O)C3CCCCC3)cc2C1=O	34	-3[16.7 µM]
Cc1noc(C)c1NC(=O)N(C)C[C@@H]1Oc2c(NC(=O)Nc3ccc(F)cc3)cccc2C(=O)N([C@@H](C)CO)C[C@H]1C	-7	-28[16.7 µM]
O=C(C[C@@H]1C=C[C@H](NC(=O)Nc2ccccc2F)[C@@H](CO)O1)NCc1ccc(-c2ccccc2)cc1	-5	8[16.7 µM]
CNC(=O)C[C@@H]1CC[C@@H]2[C@H](COc3ccc(NC(=O)c4cscn4)cc3C(=O)N2C)O1	-6	-1[16.7 µM]
C[C@@H]1CCCCO[C@@H](CN(C)Cc2ccc(C(=O)O)cc2)[C@@H](C)CN([C@H](C)CO)C(=O)c2cc(NC(=O)Nc3cccc4ccccc34)ccc2O1	-6	2[16.7 µM]
C[C@H](NC(=O)C[C@H]1C=C[C@H](NC(=O)C2CCOCC2)[C@H](CO)O1)c1ccccc1	-13	2[16.7 µM]
C[C@H](O)C#Cc1cnc2c(c1)C(=O)N([C@H](C)CO)C[C@H](C)[C@H](CN(C)C(=O)CN1CCOCC1)O2	27	-4[16.7 µM]
O=C(C[C@@H]1C[C@@H]2c3cc(NC(=O)NC4CCCC4)ccc3O[C@@H]2[C@@H](CO)O1)NCC1CC1	-2	-11[16.7 µM]
C[C@@H]1CN([C@H](C)CO)S(=O)(=O)c2ccc(C#Cc3ccc(F)cc3)cc2O[C@H]1CN(C)C(=O)CN(C)C	30	29[16.7 µM]
CN(C)CC(=O)N1[C@H](C#N)[C@H](c2ccc(-c3ccc(C(=O)N(C)C)cc3)cc2)[C@H]1CO	20	20[16.7 µM]
COc1ccc(S(=O)(=O)N(C)C[C@@H]2OCCCC[C@@H](C)Oc3ccc(N(C)C)cc3C(=O)N([C@H](C)CO)C[C@H]2C)cc1	10	-36[16.7 µM]
CCNC(=O)Nc1ccc2c(c1)C(=O)N(C)[C@H]1CC[C@H](CC(=O)NCC3CCCCC3)O[C@H]1CO2	4	-9[16.7 µM]
CNC(=O)C[C@@H]1CC[C@H]2[C@@H](COc3ccc(NC(=O)c4ccc(C(F)(F)F)cc4)cc3C(=O)N2C)O1	2	12[16.7 µM]
C[C@H](CO)N1C[C@H](C)[C@@H](CN(C)S(=O)(=O)c2ccc(Cl)cc2)Oc2ccc(NC(=O)C3CCCCC3)cc2CC1=O	10	21[16.7 µM]
C[C@@H]1CN([C@@H](C)CO)C(=O)Cc2cc(NC(=O)Cc3cn(C)c4ccccc34)ccc2O[C@H]1CN(C)C(=O)Nc1ccccc1	0	-1[16.7 µM]

Five entries out of the list above, arranged by their value in UUG fidelity, highest first:
SMILES	UUG fidelity	HIV Env fusion
CN(C)CC(=O)N1[C@H](C#N)[C@H](c2ccc(-c3ccc(C(=O)N(C)C)cc3)cc2)[C@H]1CO	20	20[16.7 µM]
COc1ccc(S(=O)(=O)N(C)C[C@@H]2OCCCC[C@@H](C)Oc3ccc(N(C)C)cc3C(=O)N([C@H](C)CO)C[C@H]2C)cc1	10	-36[16.7 µM]
CCNC(=O)Nc1ccc2c(c1)C(=O)N(C)[C@H]1CC[C@H](CC(=O)NCC3CCCCC3)O[C@H]1CO2	4	-9[16.7 µM]
CNC(=O)C[C@@H]1CC[C@H]2[C@@H](COc3ccc(NC(=O)c4ccc(C(F)(F)F)cc4)cc3C(=O)N2C)O1	2	12[16.7 µM]
C[C@@H]1CN([C@@H](C)CO)C(=O)Cc2cc(NC(=O)Cc3cn(C)c4ccccc34)ccc2O[C@H]1CN(C)C(=O)Nc1ccccc1	0	-1[16.7 µM]

Compound activity: PubChem, Broad Institute
